High-throughput results as filed in PubChem BioAssay.
PABP FP inh: PABP-poly(A) binding inhibition; P11940; PABP-poly(A) RNA binding, fluorescence polarization; inhibition, % at 35 µM; 290,000 compounds, 1% hits;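 active = 50% or more with normal probe brightness, or confirmed in later tests; inconclusive = above 50% with abnormal brightness, or retests that disagree; inactive = below 50% or failed in later tests; about a fifth of its hits are not listed in these tables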;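 also: calls also rest on retests at 20 µM and on dose response follow-up; controls were probe without protein and protein plus probe with vehicle; some compounds called inactive have numbers as strong as hits; many hits fall short of the cut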
Env fusion inh: blocks HIV Env-driven cell-cell fusion; HeLa-JRFL Env/CEM21 cell fusion, luciferase; 360,000 compounds, 1.1% hits; inhibition, % at 12.3 µM;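 active = mean replicate inhibition score of at least 50 and every replicate individually at or above 50; inconclusive = only one of the two criteria met; inactive = mean below 50 and not all replicates reaching 50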;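 also: 0% = plate neutral controls and 100% = maraviroc near 300 nM; one replicate is shown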
MT1-MMP act inh: inhibitors of human MT1-MMP activation; P50281; HT1080 RFP-PRO-GFP cells, GFP/RFP ratio fluorescence, overnight; percent of plate control window, DMSO zero; GFP/RFP ratio change, % at 20 µM; 360,000 compounds, 0.061% hits;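 active = GFP/RFP ratio change of at least 30% with cell ATP level not reduced by more than half and red fluorescence within 50% of control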; also: strong numbers were not always called active
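Assay system: HT1080 RFP-PRO-GFP cells. Benchmarks: DMSO vehicle wells and RFP-L50D-GFP reporter cell wells. Times: overnight cell settling, then overnight compound exposure, 37 °C, 5% CO2. Compound: 20 µM single dose, 1% DMSO. Read-out basis: GFP/RFP fluorescence ratio.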
CSC inhib: blocks cancer stem cells | cancer stem cell-like cells viability, luminescence | inhibition, % at 7.5 µM | 300,000 compounds, 1.1% hits;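 active = mean at 75% or more and at least half the replicates too; inconclusive = mean and replicates disagree; tested in HMLE shEcad cells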;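 also: 0% = median of negative and 100% = median of positive control wells; the first replicate is given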
Rce1 inhib: yeast Ras-converting enzyme inhibition. yeast membranes, quenched prenylated peptide cleavage fluorescence. 290,000 compounds, 0.27% hits. calls only. Q03530;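 active = fall in fluorescence gain of 50% or more versus controls, with final raw signal at or below 3038400; inconclusive = same 50% fall but final raw signal above 3038400; inactive = fall in fluorescence gain under 50%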;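 also: plate controls were neutral control wells for no effect and wells lacking membranes for full effect; tested at 10 µM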
Target sequence (Q03530 whole entry, looked up): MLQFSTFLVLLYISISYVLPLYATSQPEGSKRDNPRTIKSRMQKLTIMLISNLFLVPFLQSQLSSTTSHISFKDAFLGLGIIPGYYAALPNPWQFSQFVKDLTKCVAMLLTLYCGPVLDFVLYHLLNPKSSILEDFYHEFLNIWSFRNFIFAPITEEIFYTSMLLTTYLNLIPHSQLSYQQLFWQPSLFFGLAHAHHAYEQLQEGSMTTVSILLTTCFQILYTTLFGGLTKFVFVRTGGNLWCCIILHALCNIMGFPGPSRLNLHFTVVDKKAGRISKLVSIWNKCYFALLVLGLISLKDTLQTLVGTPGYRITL
eIF4H inh: inhibitors of RNA binding by human eIF4H; inhibition, % at 35 µM; 290,000 compounds, 0.94% hits; Q15056; eIF4H fluorescence polarization binding assay;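 active = 50% or more with normal probe brightness, or confirmed in later tests; inconclusive = above 50% with abnormal brightness, or retests that disagree; inactive = below 50% or failed in later tests; about a fifth of its hits are not listed in these tables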;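 also: calls also rest on retests at 20 µM and on dose response follow-up; 0% = protein and probe with vehicle and 100% = probe without protein; strong numbers were not always called active; many hits fall short of the cut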
Yeast UUG start: alters start codon recognition fidelity in yeast; S. cerevisiae UUG-firefly luciferase reporter, luminescence/redox ratio; activity score, % at 18.7 µM; 350,000 compounds, 0.13% hits; AID 602363;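 active = replicate mean at a twofold rise or more, about +100% in these data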;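 also: firefly luciferase made from a UUG start codon reports start codon fidelity; reporter light over untreated wells divided by growth signal over untreated wells; some hits fall short of that in this replicate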
eIF4H inh retest: recorded beside eIF4H inh, whose call it bears; inhibition, %; compound at 20 µM; confirmation average;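 mean of two retest wells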
PABP FP inh retest: also measured in PABP FP inh; calls as there; inhibition, %; compound at 20 µM; confirmation repeats;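 mean of two retest wells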
MT1-MMP act inh RFP: also measured in MT1-MMP act inh; calls as there; RFP signal change, %; measured here: RFP expression control read;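 0 = vehicle wells; hits needed this value within 50% of zero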
An asterisk follows results filed as active; i = inactive; u = inconclusive; x = not tested or not shown.

SMILES	PABP FP inh	Env fusion inh	MT1-MMP act inh	MT1-MMP act inh RFP	CSC inhib	Rce1 inhib	eIF4H inh	Yeast UUG start	others
CCc1nc(SCC(=O)Nc2ccccc2C(=O)OC)n[nH]1	10	x	-3	-4	-13	i	-3	-14
Cc1cc(NS(=O)(=O)Cc2ccccc2)cc(C)c1OCC(=O)N1CCOCC1	12	x	3	7	-7	i	2	-3
CC1(C)C(=O)N(c2ccccc2)C1c1ccccc1O (centres undefined)	5	39	1	-2	u	i	7	-22
COc1ccc(NC(=O)CSc2cc(C)nc3c(-c4ccccc4)cnn23)cc1	-8	12	3	3	13	i	-9	x
O=C(COc1cc2oc(=O)c3c(c2cc1Cl)CCC3)NCC1CCC(C(=O)O)CC1 (centres undefined)	4	-1	-2	2	-15	i	3	x
O=C(CC1C(=O)N(c2ccc(Cl)cc2)C(=S)N1CCc1ccncc1)Nc1ccc(F)cc1 (centres undefined)	-6	x	-2	-10	8	x	-2	-25
COc1ccc(-c2cn[nH]c2N)cc1OC	6	x	-1	3	-1	i	-10	-22
CCn1ccnc1CN(C)C(=O)c1cc(COc2c(F)cccc2F)on1	-1	6	2	4	3	i	2	2
CN(C)S(=O)(=O)n1cnc(C(CCO)c2ncn(S(=O)(=O)N(C)C)c2CCCO)c1 (centres undefined)	x	-12	0	4	2	x	x	-23
COc1ccc(C)cc1NC(=O)NNC(=O)C(C)Oc1ccc(F)cc1Cl (centres undefined)	1	-1	0	-3	-1	i	-7	-15
CSCC[C@H](NC(=O)[C@H](Cc1ccccc1)n1c(=O)[nH]c2ccccc2c1=O)C(=O)NCC1CCC(C(=O)O)CC1 (some centres undefined)	1	x	0	3	-10	i	-2	3
COc1cccc(CNC(=S)Nc2cc(OC)ccc2OC)c1	-3	2	-3	3	-3	i	-14	-23
O=C(N/N=C\c1cccc(OC(=O)c2ccco2)c1)c1ccc2c(c1)OCO2	-11	-62	0	1	13	i	-6	x
CC1C2(C)OCC(C#N)(C(=N)O2)C1(C#N)C#N (centres undefined)	36*	x	x	x	-5	i	63*	x	eIF4H inh retest=78*;PABP FP inh retest=84*
Cc1cc(/C=C2/SC(=O)N(CC(=O)OC(C)C)C2=O)c(C)n1C	2	x	0	1	-16	i	-2	-1
Oc1ccc(-c2csc(Nc3ncccn3)n2)cc1	4	-57	2	1	14	i	6	x
O=C(N/N=C\c1cc([N+](=O)[O-])ccc1N1CCOCC1)c1ccccn1	-1	-12	-2	0	-9	i	8	1
CCN(C(=O)CSc1nc2ccccc2c(=O)n1Cc1ccc(C)cc1)C1CCS(=O)(=O)C1 (centres undefined)	x	9	0	-1	-7	i	x	-5
COCCNC(=O)C(Cc1c[nH]c2ccccc12)NC(=O)OCc1ccccc1 (centres undefined)	-1	-3	0	-1	-13	i	-13	-14
COc1ccc(/C(N)=N/OC(=O)CCC2CCCC2)cc1	2	-9	-1	1	1	i	-4	-15
Cc1cccc(S(=O)(=O)NCCc2cn3ccccc3n2)c1	10	7	2	4	-19	i	-5	x
CCCN(CCC)Cc1c(C(=O)N/N=C/C(C)=C\c2ccccc2)nnn1-c1nonc1N	-12	34	-3	-5	x	i	6	-10
CSCC[C@H](NC(=O)C1CCN(S(=O)(=O)c2ccc(C)cc2)CC1)C(=O)NCC1CCCO1 (some centres undefined)	-2	-12	-1	1	-10	i	-7	-1
Cc1ccc(C(=O)CCC(=O)N2CCC(C(N)=O)CC2)s1	x	x	-3	3	-2	x	x	-10
COc1ccccc1-c1sc2ccccc2c1-c1ccccc1OC	x	14	-1	-2	28	x	x	-5
CCCCN(CC)CCNC(=O)c1cc2c(C)nc3ccccc3c2o1	-13	x	3	2	-7	i	2	-7
COc1ccc(Cl)cc1S(=O)(=O)N1CCN(C(=O)c2cc(OC)c(OC)c(OC)c2)CC1	-13	x	4	3	x	x	-7	9
O=C(c1ccccc1)c1ccc(OCCCCN2CCCCC2)cc1	20	x	5	7	35	i	-1	-15
CCCCCOP(=O)(OCCCCC)C1(NS(=O)(=O)c2ccccc2)C=CC(=O)c2ccccc21 (centres undefined)	4	x	-5	-13	-11	i	2	x
Cc1cccc(C(=O)OCC(=O)NC(=O)Cc2ccccc2)c1O	0	-257	-3	-1	-2	i	-7	-9
CN(CCOc1ccccc1)C(=O)C1CCN(C(=O)c2ccc(F)cc2)CC1	7	-6	-4	-1	0	i	9	4
CC(NC(=O)CN1CCN(C(=O)c2cccs2)CC1)c1ccc(F)cc1F (centres undefined)	x	x	7	0	0	x	x	-7
O=C(CSc1nnnn1-c1ccccc1)Nc1ccc(Cl)cc1	-2	6	3	3	-8	i	-7	-17
CCOC(=O)N1CCN(S(=O)(=O)c2c(C)cc(C)cc2C)CC1	-9	x	1	-1	-4	i	-4	14
Cc1ccc(CNC(=O)c2ccccc2NC(=O)CSc2nnnn2C)cc1	-6	x	2	-1	-4	i	8	-9
O=C(CN(Cc1ccc(F)cc1)S(=O)(=O)c1ccccc1)N1CCCCC1	-1	x	-4	-1	-5	i	-2	-27
O=C(NCCc1ccccc1)C1CCCN(S(=O)(=O)c2cccc3nsnc23)C1 (centres undefined)	6	-10	-3	-3	-8	i	1	-9
COc1ccc(/C=C/c2c(-c3cccc(C)c3)oc3ccc(N4CCOCC4)cc23)cc1	x	36	-2	1	9	i	x	-3
CCn1cc(C(=O)Nc2sc(C)c(C)c2C(=O)OC)cn1	-4	5	4	3	-27	i	-8	x
O=C(CSc1ncccn1)N(Cc1cccnc1)C(CCc1ccccc1)c1nc2ccccc2[nH]1 (centres undefined)	x	-13	-5	-5	x	x	x	-13

Some of these compounds in order of count of non-hydrogen atoms, falling.
SMILES	PABP FP inh	Env fusion inh	MT1-MMP act inh	MT1-MMP act inh RFP	CSC inhib	Rce1 inhib	eIF4H inh	Yeast UUG start	others
COc1ccc(/C=C/c2c(-c3cccc(C)c3)oc3ccc(N4CCOCC4)cc23)cc1	x	36	-2	1	9	i	x	-3
O=C(NCCc1ccccc1)C1CCCN(S(=O)(=O)c2cccc3nsnc23)C1 (centres undefined)	6	-10	-3	-3	-8	i	1	-9
Cc1ccc(CNC(=O)c2ccccc2NC(=O)CSc2nnnn2C)cc1	-6	x	2	-1	-4	i	8	-9
O=C(CN(Cc1ccc(F)cc1)S(=O)(=O)c1ccccc1)N1CCCCC1	-1	x	-4	-1	-5	i	-2	-27
CCOC(=O)N1CCN(S(=O)(=O)c2c(C)cc(C)cc2C)CC1	-9	x	1	-1	-4	i	-4	14
CCn1cc(C(=O)Nc2sc(C)c(C)c2C(=O)OC)cn1	-4	5	4	3	-27	i	-8	x

(continued)
SMILES	PABP FP inh	Env fusion inh	MT1-MMP act inh	MT1-MMP act inh RFP	CSC inhib	Rce1 inhib	eIF4H inh	Yeast UUG start	others
Cc1cccc(-c2nsc(SCC(=O)NCC3CCCO3)n2)c1 (centres undefined)	-2	-8	2	0	-4	i	0	x
COc1nc(NCc2ccco2)nc(NC2CCCCC2)n1	-2	-436	4	0	-6	i	1	3
COc1cc(NC(=O)c2ccccc2)c(OC)cc1NC(=O)Cc1ccccc1	14	13	3	-5	-14	i	1	6
O=C(CNC(=O)c1ccccc1)Oc1ccc([N+](=O)[O-])cc1	-3	0	-1	-1	-14	i	-14	16
CC(=O)N1CCc2cc(C(=O)CN3CCN(c4ccccn4)CC3)ccc21	2	9	-2	-2	-11	i	-3	-8
COCCN(CC(=O)NCc1ccc2c(c1)OCO2)C(=O)CCC(=O)Nc1nccs1	12	-25	1	4	-6	i	-1	11
COc1ccc(OC)c(C2C(C(C)=O)=C(O)C(=O)N2CCN2CCOCC2)c1 (centres undefined)	2	-46	2	4	6	i	1	-17
COc1ccc(C(=O)C[n+]2ccc(C)cc2)cc1	3	6	1	3	-13	i	6	-11
CCc1nnc(NC(=O)CCC(=O)Nc2ccccc2)s1	6	-23	4	3	0	i	-12	-20
CCc1cc(CNC(=O)C2CCC(=O)N(CCc3ccc(OC)cc3)C2)on1 (centres undefined)	0	-19	-3	-2	-10	i	-5	13

Among those listed so far, 2 contain a nitro group on carbon:
SMILES	PABP FP inh	Env fusion inh	MT1-MMP act inh	MT1-MMP act inh RFP	CSC inhib	Rce1 inhib	eIF4H inh	Yeast UUG start	others
O=C(N/N=C\c1cc([N+](=O)[O-])ccc1N1CCOCC1)c1ccccn1	-1	-12	-2	0	-9	i	8	1
O=C(CNC(=O)c1ccccc1)Oc1ccc([N+](=O)[O-])cc1	-3	0	-1	-1	-14	i	-14	16

Of the compounds above, these have a COOH group.
SMILES	PABP FP inh	Env fusion inh	MT1-MMP act inh	MT1-MMP act inh RFP	CSC inhib	Rce1 inhib	eIF4H inh	Yeast UUG start	others
O=C(COc1cc2oc(=O)c3c(c2cc1Cl)CCC3)NCC1CCC(C(=O)O)CC1 (centres undefined)	4	-1	-2	2	-15	i	3	x
CSCC[C@H](NC(=O)[C@H](Cc1ccccc1)n1c(=O)[nH]c2ccccc2c1=O)C(=O)NCC1CCC(C(=O)O)CC1 (some centres undefined)	1	x	0	3	-10	i	-2	3

Remaining list, next part
SMILES	PABP FP inh	Env fusion inh	MT1-MMP act inh	MT1-MMP act inh RFP	CSC inhib	Rce1 inhib	eIF4H inh	Yeast UUG start	others
CSc1nc(C)c(C(=O)Nc2ccccc2)c(-c2ccco2)c1C#N	7	11	15	-11	4	i	5	x
O=C(/C=C/c1ccco1)Nc1ccccc1N1CCCCC1	-15	3	2	6	-9	i	4	x
Cc1cccc(N2C(=O)C(O)=C(C(=O)c3cccs3)C2c2cccc(Oc3ccccc3)c2)n1 (centres undefined)	0	1	-4	-1	20	i	13	-21
Cc1cc(OCC(=O)Nc2ccc(N3CCN(C(=O)c4ccco4)CC3)cc2)cc(C)c1Cl	-3	x	8	-9	2	i	-8	x
O=C(c1cc(C2CC2)nn1-c1ccccc1)N1CCN(c2ncc(C(F)(F)F)cc2Cl)CC1	x	3	-5	-3	x	x	x	-11
O=C(NCc1ccc2c(c1)OCO2)c1cc2n(n1)C(C(F)(F)F)CC(c1ccc3c(c1)OCO3)N2 (centres undefined)	-3	14	-3	-3	-2	x	-7	16
CCN1CCN(C(=O)Cn2nc(-c3ccc(Cl)cc3)ccc2=O)CC1	4	4	-3	-3	-9	i	-2	-24
COc1ccc(CNC(=O)c2cc(C(=O)C3CC3)c[nH]2)cc1	-4	18	1	-7	3	i	-2	-9
COc1cc2nc(=S)n3[nH]c(CCn4c(C)nc5ccccc54)nc3c2cc1OC	5	x	12	-5	12	i	1	-5
O=C(/C=C/c1cc([N+](=O)[O-])ccc1OC(F)F)NCc1ccc(Cl)cc1	6	x	0	0	-6	i	6	-21
COc1ccc(-n2c(-c3ccco3)nc3c(cnn3-c3ccc(C)cc3)c2=O)cc1	-1	24	-3	-11	4	i	-2	-21
COc1ccccc1-c1nc(SCC(=O)N2CCC(C(N)=O)CC2)n[nH]1	x	-2	2	1	-8	x	x	-15
CCOc1ccc(NC(=S)NC(=O)c2ccco2)cc1	4	-46	1	-3	1	i	-7	-19
O=C(CSCc1ccc(Cl)cc1)Nc1ccc2c(c1)OCCO2	8	-1	2	-1	-11	i	5	-14
O=C(Nc1ccc(Br)cn1)c1cccc(C(=O)Nc2ccc(Br)cn2)c1	-16	4	-5	-1	-2	i	-14	-40
COCCn1c(SCC(=O)Nc2ccc(F)cc2F)nc2c(c1=O)SCC2	x	2	-1	2	x	x	x	2
CC1=C(C#N)C(Nc2cccc(C)n2)(C(F)(F)F)C(=O)N1 (centres undefined)	4	x	-3	-3	-10	i	-4	-5

No enrichment for hits, and some 2.9% of all compounds hit somewhere here.
